# TRPV1 PAM – enhances activation of the human vanilloid receptor TRPV1; Q8NER1; TRPV1-expressing cells, Fluo-8 calcium influx, capsaicin EC20 potentiation; host cell line not named in the record; control for the full effect not named in the record; potentiation, % at 8.33 µM; hit rate 0.02% among 320,000; active means potentiation above 80%; inconclusive means 30% to 80%; inactive means below 30%; note: 0% is about no effect
#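 TRPV1-expressing cells were cultured overnight at 35.5C and loaded with Fluo-8 calcium dye for 40 to 90 min at room temperature. After a 10 s baseline, compound was added and calcium influx was read kinetically for 3 min (ex 480/em 520 nm).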
# gsp antag – antagonizes gsp, the McCune-Albright syndrome mutation. gsp-mutant cells, cAMP HTRF, 30 min; control for the full effect not named in the record. Potency, µM (highest dose often 76.9 µM), without a hit: top-dose activity change, negative = inhibition, most hits filed as inhibitors. hit rate 0.4% among 340,000; active = falling curve of any shape with a large fitted effect; inconclusive = falling curve, mostly with a smaller effect; inactive = flat or rising curve; cell line not stated here;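 note: intracellular cAMP measured with PDE inhibitor Ro 20-1724 present during compound exposure; potency is the fitted concentration of half-maximal effect; % is set by controls: 0 for no effect and ±100 for the full control effect; nearly all actives have a fitted effect of over 65% in size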
#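 Cells, 2000/well, grown 16–24 h in DMEM 10% FBS with 0.5 mg/ml G418, then compounds plus […] (300 uM addition stock), 30 min at 37C. cAMP read by HTRF (cAMP-d2 and anti-cAMP antibody-K in lysis buffer) after 30 min RT.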
# ClpP mod – qHTS Assay for Activators of ClpP; Potency, µM (titrated, usually from 57.5 µM), for inactives: at the top dose activity change, negative = active; purified B. subtilis ClpP, FRET peptide cleavage, 20 min; AID 651965, 2013; hit rate 1.9% among 340,000; active = well fitted falling curve with a large enough effect; inconclusive = small, poorly fitted or top-dose-only effect; inactive = no such curve, though single readings can be large or run the other way; note: potency is the fitted concentration of half-maximal effect; the source files actives as falling curves though it sought activators and does not explain the sign; nearly all actives have a fitted effect of over 65% in size; many hits overshoot -100%
# Target sequence (P80244 whole entry, looked up): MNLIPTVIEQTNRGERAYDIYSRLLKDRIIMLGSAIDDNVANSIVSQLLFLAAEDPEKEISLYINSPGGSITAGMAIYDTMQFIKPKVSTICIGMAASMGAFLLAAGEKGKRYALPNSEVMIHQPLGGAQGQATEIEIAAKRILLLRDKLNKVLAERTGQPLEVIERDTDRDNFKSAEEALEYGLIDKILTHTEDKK
#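 Purified B. subtilis ClpP, 10 microg/mL final in Tris/HCl pH8 with KCl, BSA, glycerol and Tween-20, cleaved an Abz/nitrotyrosine-quenched decapeptide. Fluorescence (ex 320, em 430) was read at 0 and 20 min at room temperature. Delta was normalized to 5.8 microM ADEP and DMSO/no-enzyme controls.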
# Sfp inh – Sfp phosphopantetheinyl transferase inhibition; Biochemical Sfp PPTase activity, qHTS; Potency, µM, without a hit: max response, negative = inhibition, most hits filed as inhibitors; hit rate 3.5% among 310,000; active = well fitted inhibition curve with a large enough effect; inconclusive = small, poorly fitted or top-dose-only effect, or another doubt; inactive = no such curve, though single readings can be large or run the other way;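 note: the enzyme is Sfp with the accession as filed and its product quenches rhodamine fluorescence; potency is the fitted concentration of half-maximal effect; 0% = enzyme reaction without inhibitor and -100% = no enzyme wells; top concentration of the series not given in the record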
#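 Fluorescence-quenching assay with 15 nM Sfp, 5 uM rhodamine-CoA and 12.5 uM BHQ-2-labelled ybbR peptide in pH 7.6 Hepes/MgCl2 buffer. Enzyme was pre-incubated with compound for 15 min at room temperature. Rate was taken from the 30-min fluorescence change (525/598 nm).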
# TRPML1 blocker – blocks the human TRPML1 channel | Q9GZU1 | TRPML1-inducible cells, Ca2+ dye fluorescence, FDSS; active compounds read low; inhibition of EC80 agonist-evoked calcium signal | activity change, negative = inhibition, % (test concentration not listed) | hit rate 0.02% among 390,000 | AID 624415; in the data active means activity change below about -50%; inconclusive means about -30% to -50%; inactive means above about -30%;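 note: stimulus is agonist 54-4 at its EC80 concentration; % is set by controls: 0 for no effect and ±100 for the full control effect; compound concentration not given in the record; the text of the record puts the active cut at -80%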
# Target sequence (Q9GZU1 whole entry, looked up): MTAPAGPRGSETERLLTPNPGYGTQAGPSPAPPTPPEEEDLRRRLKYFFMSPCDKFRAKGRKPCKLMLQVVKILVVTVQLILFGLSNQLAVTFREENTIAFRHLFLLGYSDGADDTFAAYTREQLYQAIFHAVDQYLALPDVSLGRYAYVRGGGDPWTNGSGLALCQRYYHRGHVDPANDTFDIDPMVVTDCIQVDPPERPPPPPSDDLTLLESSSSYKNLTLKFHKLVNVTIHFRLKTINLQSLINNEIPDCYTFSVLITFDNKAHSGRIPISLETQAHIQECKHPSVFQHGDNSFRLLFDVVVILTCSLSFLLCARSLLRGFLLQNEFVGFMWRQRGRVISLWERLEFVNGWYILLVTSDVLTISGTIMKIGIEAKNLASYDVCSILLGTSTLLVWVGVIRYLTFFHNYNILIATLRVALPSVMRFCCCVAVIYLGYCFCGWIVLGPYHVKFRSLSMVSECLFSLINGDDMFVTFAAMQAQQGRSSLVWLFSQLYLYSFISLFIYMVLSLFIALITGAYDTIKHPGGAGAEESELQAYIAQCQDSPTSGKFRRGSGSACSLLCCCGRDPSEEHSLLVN
#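 Tet-induced TRPML1-DL cells loaded with Ca8 no-wash calcium dye were read kinetically on FDSS. Compound addition was followed by EC80 agonist 54-4 (4 uM final); inhibition was read over 110 s.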
# Menin-MLL FL inh – inhibitors of human menin-MLL interaction, wild-type MLL peptide. Fluorescence polarization, fluorescein-MLL peptide displacement from menin. 290,000 tested, under 10 active. FP activity change, % at 61.4 µM; inconclusive = falling polarisation curve, or a change in total fluorescence; inactive = total fluorescence flat and polarisation flat or rising; no compound was filed as active; the % refers to the polarisation; negative = inhibition;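 note: % of control where 0% means no effect; inhibitors lower the polarisation; unlabelled MLL peptide was the positive control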
# gsp ag – agonists of gsp mutant (McCune-Albright syndrome) | gsp mutant cells, cAMP HTRF, 30 min; control for the full effect not named in the record | Potency, µM (series often up to 76.9 µM), without a hit: top-dose activation (cAMP increase), usual class: activators | hit rate 0.13% among 340,000; active = well fitted activation curve with a large enough effect; inconclusive = small, poorly fitted or top-dose-only effect, or another doubt; inactive = no such curve, though single readings can be large or run the other way; cell line not stated here;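 note: phosphodiesterase inhibitor Ro 20-1724 added with compounds to block cAMP breakdown; potency is the fitted concentration of half-maximal effect; nearly all actives have a fitted effect of over 60% in size; about a fifth of the inactives were tested at one dose only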
#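 Cells in DMEM/10% FBS with G418 were pretreated with compounds in DMSO plus […] (300 uM stock) for 30 min at 37C. cAMP was measured by HTRF (cAMP-d2 plus anti-cAMP antibody-K) after 30 min at room temperature.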
# Active calls of the source: *; ? = inconclusive; . = not tested or not shown; & = joins results of further samples; [ ] = dose if it differs, or a comment.
SMILES,gsp antag,Menin-MLL FL inh,gsp ag,TRPV1 PAM,Sfp inh,ClpP mod,TRPML1 blocker
O=C(Nc1ccsc1C(=O)NC1CC1)c1ccccc1,-14%,0.2,-19%,0,1%,-1.6%,19
CC(NC(=O)/C(C#N)=C/c1ccc(Cl)c([N+](=O)[O-])c1)c1ccccc1 (stereo not drawn),8%,4.5,7%,7,25µM*,0.8%,22
Cn1nnc2cc(C(=O)Nc3ccc4ccccc4c3)ccc21,-3%,-5.3,-4%[15.4 µM],-3,19%,.,-10
COc1ccc(CCNC(=O)C2CCCN(S(=O)(=O)N3CC(C)CC(C)C3)C2)cc1OC (stereo not drawn),6%,0.5,0%,-9,0%,1.2%,5
O=C(COC(=O)/C=C/c1ccccc1[N+](=O)[O-])NCC1CCCO1 (stereo not drawn),-6%,-5.0,4%[15.4 µM],1,16%,.,-6
O=C(NCC(O)c1ccc([N+](=O)[O-])cc1)C1=COCCO1 (stereo not drawn),0%,.,2%[15.4 µM],.,.,-1.0%,0
Cc1ccc2nc3c(cc2c1)c(NC(=O)c1ccccn1)nn3CC(C)C,5%,4.4,19%,-11,?,-5.4%,12
COc1cccc(N=Nc2ccc3cccnc3c2O)c1,7%,1.1,-6%,4,15%,2.0%,20
CCOc1ccc(S(=O)(=O)N2CCN(CCNS(=O)(=O)c3ccc(C)cc3)CC2)cc1,-6%,.,17%[15.4 µM],-6,.,.,-3
C/C(=N\NC(=O)C(=O)N/N=C(\C)c1cccc(O)c1)c1cccc(O)c1,.,-1.9,-6%[15.4 µM],3,10%,.,12
Cc1cccc(NC(=O)CNC(=O)CNC(=O)Cc2ccccc2)c1,6%,2.0,3%[15.4 µM],?,6%,-3.0%,-12
COc1cc(CCC(=O)NC2(C)CCS(=O)(=O)C2)cc(OC)c1OC (stereo not drawn),15%,.,-10%,-10,.,1.9%,3
COc1ccc2c(c1)C(O)C(CO)C(C(=O)O)C2 (stereo not drawn),2%,.,-9%,.,.,-1.2%,12
CCc1nnc(SCC(=O)Nc2ccc(N3CCN(S(C)(=O)=O)CC3)cc2)o1,2%,.,-12%,3,5%,.,-2
CN1C(C(=O)NCCc2cccs2)CC2Cn3c(nc4ccccc43)C21 (stereo not drawn),-4%,-2.8,.,25,15%,0.7%,24
CCNC(=O)OCc1cn(-c2ccc(Cl)cc2)nn1,7%,-6.3,10%[15.4 µM],-38,9%,.,17
C[C@@H]1CN([C@H](C)CO)C(=O)CCCn2cc(nn2)CO[C@H]1CN(C)S(=O)(=O)c1ccc(C#N)cc1,.,.,27%,.,.,0.3%,-4
O=C(CN(c1ccc(F)cc1)S(=O)(=O)c1ccc2c(c1)OCCO2)NCc1ccccc1,1%,1.9,-4%,-4,21%,-1.0%,12
COc1ccccc1N1CCN(C(=O)CCCn2c(=S)[nH]c3ccccc3c2=O)CC1,.,.,1%,.,.,0.6%,27
CCc1cccc(CC)c1N1C(=O)COCC1=O,.,.,?,.,.,0.3%,7
COc1ccc(CSc2nnnn2-c2ccccc2)cc1,-7%,0.9,1%,0,-3%,-0.3%,4
O=C(CSc1nnc2c(n1)[nH]c1ccc(F)cc12)N1CCOCC1,0%,-0.4,0%[15.4 µM],-15,7%,-0.2%,-2
O=C(c1ccsc1)N1CCCC(Nc2cccc(F)c2)C1 (stereo not drawn),9%,-0.5,28%,-3,6%,0.5%,-18
CC(C)(C)c1ccc(-c2nc(C=O)c3ccccn23)cc1,-17%,5.6,-4%,-9,14%,-11%,14
Cc1nc(C(=O)NNC(=O)c2ccc(Cl)cc2)c(C(F)(F)F)o1,-14%,0.2,-1%[15.4 µM],1,13%,.,10
CC12CCC(c3c(C(=O)Nc4nccs4)nn(-c4ccccc4)c31)C2(C)C (stereo not drawn),-10%,0.9,-18%,-8,-14%,-2.8%,-2
NC(=O)SCC(=O)Nc1ccccc1C(=O)O,1%,3.0,3%,?,18µM*,-4.5%,-8
O=C(COC(=O)c1ccc(Cl)nc1)NCCc1ccccc1,5%,.,?,.,.,0.6%,1
Cc1ccc(C)c(NC(=O)/C(C#N)=C/c2cn(CC(=O)NCc3ccco3)c3ccccc23)c1,9%,1.0,-5%,-12,-22%,-1.1%,24
Cc1cc(C)nc(NCCO)n1,.,-0.8,0%[15.4 µM],-6,-2%,.,3

# 3 compounds out of the list, ordered by SMILES length, low to high:
SMILES,gsp antag,Menin-MLL FL inh,gsp ag,TRPV1 PAM,Sfp inh,ClpP mod,TRPML1 blocker
Cc1cccc(NC(=O)CNC(=O)CNC(=O)Cc2ccccc2)c1,6%,2.0,3%[15.4 µM],?,6%,-3.0%,-12
Cc1ccc2nc3c(cc2c1)c(NC(=O)c1ccccn1)nn3CC(C)C,5%,4.4,19%,-11,?,-5.4%,12
CC12CCC(c3c(C(=O)Nc4nccs4)nn(-c4ccccc4)c31)C2(C)C (stereo not drawn),-10%,0.9,-18%,-8,-14%,-2.8%,-2

# Other results follow.
SMILES,gsp antag,Menin-MLL FL inh,gsp ag,TRPV1 PAM,Sfp inh,ClpP mod,TRPML1 blocker
CCC(=O)Nc1ccc(NC(=O)CSc2nnnn2CC)cc1C,23%,3.0,8%,2,27%,0.5%,-11
COCCn1nnnc1C(c1ccc(OC)cc1)N1CCN(C(=O)c2ccco2)CC1 (stereo not drawn),15%,-1.5,-1%[15.4 µM],6,6%,-0.5%,9
Nc1ccc2nc(SCC(=O)N3CCOCC3)sc2c1,-22%,-0.7,26%,-6,9%,.,-21
CC(C)Cc1cc(C(C)(C)C)ccc1OC(=S)N(C)C,6%,-1.5,25%,-22,22%,0.6%,8
COc1ccc(/C=C2\N=C3CCCCCN3C2=O)cc1OC,10%,1.2,-18%,-1,11%,0.4%,-4
NC1=NC[C@@H](Cc2ccc(O)cc2)N1CCCCC1CCCCC1,1%,-0.8,5%,-9,4%,0.3%,3
Cc1csc(NC(=O)CSc2nnc(-c3ccc(S(=O)(=O)N4CCCC4)cc3)o2)n1,-16%,2.5,-13%,13,12%,28µM*,-8
O=C1CCCc2c1cc(C(=O)NCc1ccco1)c(=O)n2-c1ccc(Cl)cc1,-10%,3.2,32%,7,56µM*,20µM*,19
O=C(CC1C(=O)NCCN1C(=O)Nc1ccc(F)cc1F)Nc1cc(Cl)ccc1Cl (stereo not drawn),10%,-1.6,0%[15.4 µM],27,4%,.,0
COC(=O)c1ccc(CN2C(=O)NC3(CCCCC3)C2=O)cc1,12%,-5.2,-56%[inhibitor],-7,15%,-7.0%,37
COc1cccc(C2Nc3cc(Cl)c(S(N)(=O)=O)cc3S(=O)(=O)N2)c1 (stereo not drawn),20%,6.0,-42%[inhibitor],14,4%,2.5%,4
COc1ccc(N2CCN(C(=O)c3ccc(C(C)(C)C)cc3)CC2)cc1,2%,-2.1,-81%,2,?,-0.7%,13
CCCCOC(=O)C(C)Nc1n[nH]c(=O)[nH]c1=O (stereo not drawn),10%,-0.2,-31%[inhibitor],-8,-11%,1.6%,-4
OCCN1CCN(CC/C=C2/c3ccccc3Sc3ccc(C(F)(F)F)cc32)CC1,5%,4.1&8.7&1.5,.,2,?,1.9%,8
CCCCn1c(SCc2cccnc2)nc2c1c(=O)n(C)c(=O)n2C,14%,2.1,6%,-13,4%,0.9%,4
CCCCn1c(=O)[nH]c2nc3cc(NC(C)=O)ccc3nc2c1=O,-2%,?,19%[15.4 µM],9,11%,-2.3%,-2
CC(=O)NC1CCN(CC(=O)Nc2nccs2)CC1,8%,-0.1,5%[15.4 µM],6,-4%,1.0%,-24
Cc1ccc(S(=O)(=O)NCC(=O)N/N=C/c2ccc(Cl)cc2Cl)cc1,-17%,-1.4,-11%,12,45µM*,91%,-25
Cc1ccc(N=Cc2cc3c(cc2O)OC(N)=C(C#N)C3c2ccccc2)cc1 (stereo not drawn),?,?,-14%,-5,-2%,-6.5%,?
O=C(COC(=O)c1ccco1)Nc1cccc(S(=O)(=O)N2CCOCC2)c1,.,.,3%,.,.,-0.1%,20
CN(Cc1ccccc1)C(=O)COc1cc(Cl)ccc1Cl,5%,2.4,11%,-2,10%,0.0%,-26
Cc1c(C(=O)OC/C(O)=C(\C#N)c2nc3ccccc3[nH]2)oc2ccc(Br)cc12,3%,?,12%[15.4 µM],9,17%,.,-10
O=C(Nc1nnc(CSCc2ccccc2F)s1)c1cccc([N+](=O)[O-])c1,-18%,0.0,-32%[inhibitor],1,13%,-1.2%,3
O=C(C1=C[C@@H](c2ccc(C(F)(F)F)cc2)C[C@@H](OCc2ccc(CO)cc2)O1)N1CCN(Cc2ccc3c(c2)OCO3)CC1,?,15,?,-4,11%,-0.8%,10
COC(=O)c1ccc(NC(=O)CCCCCn2nnc3ccccc3c2=O)cc1,-10%,-12,?,-20,7%,1.0%,-13
CC(C)NC(=O)C(=O)Nc1cc2c3c(c1)CCC(=O)N3CCC2,11%,.,-1%,-12,8%,-1.2%,0
CC(C)(C)N1C(=O)[C@H]2[C@@H](c3ccc(Br)cc3)N3C(=O)N(c4cccc(F)c4)C(=O)[C@@]3(C)[C@H]2C1=O,-8%,.,0%,1,.,1.2%,2
Cc1cn(C2CCCCO2)c(=O)nc1NO (stereo not drawn),6%,.,-12%,.,.,-2.9%,-3
CCCCNC(=O)COC(=O)c1cc(C)nc2ccccc12,6%,-4.3,-7%,12,15%,?,7
Cc1cc(C)nc(N2CCCC(C(=O)NNC(=O)c3ccncc3)C2)n1 (stereo not drawn),7%,-7.6,-4%[15.4 µM],-12,12%,.,0
Cc1cc(NC(=O)c2c(F)c(F)c(F)c(F)c2F)no1,1%,2.7,-4%,0,8%,-0.6%,-7

# Screening results (PubChem)
